Vaccinia stage: Vaccinia orthopox stage-specific inhibition; activity change (mCherry), % (test concentration not listed); AID 1053133; Vaccinia-infected cells, mCherry/Venus stage reporter fluorescence; stronger effect = lower value; some inactives read as strong as hits; actives 0.01% (n = 89,000);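 active = mCherry past -33% and 40 or more points under the early reporter, replicates agreeing; inconclusive = past -33% without that gap or agreement; tested in A549 cells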;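 note: scaled between vehicle wells and reference inhibitor wells; 23 nL library stock went into each well; one replicate is shown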
Vaccinia stage Venus: also measured in Vaccinia stage; calls as there; activity change (Venus), %; measured here: Venus reporter, other viral stage;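 negative = less Venus signal; first of two replicates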
An asterisk follows results filed as active; ? = inconclusive; nt = no result given; & = joins results of further samples. The list is partial; count on the stated rates, not on these rows.

SMILES	Vaccinia stage	Vaccinia stage Venus
COC(=O)C[C@H]1CC[C@H]2[C@H](COc3ccc(NC(=O)Nc4cccc(C#N)c4)cc3C(=O)N2C)O1	-7.1	-5.0
COc1ccc(CN(C)C[C@H]2Oc3c(NC(=O)Nc4c(C)noc4C)cccc3C(=O)N([C@H](C)CO)C[C@@H]2C)cc1	1.2	0.7
COc1ccc(C#Cc2ccc3c(c2)[C@@H]2[C@@H](CCN2S(=O)(=O)C2=NC(C)C=N2)[C@H](CO)N3C)cc1 (stereo not given in full)	6.9	7.3
CCCN(C)C[C@H]1Oc2ncc(-c3ccccc3)cc2C(=O)N([C@H](C)CO)C[C@@H]1C	-3.1	-3.7
Cc1noc(C)c1S(=O)(=O)Nc1ccc2c(c1)C(=O)N([C@@H](C)CO)C[C@@H](C)[C@H](CN(C)S(=O)(=O)c1c(C)noc1C)OCCCC[C@@H](C)O2	-20.0	-9.8
C[C@@H]1CN([C@@H](C)CO)C(=O)c2cc(C#Cc3ccccc3F)cnc2O[C@@H]1CN(C)C(=O)C1CC1	8.3	-0.3
C/C=C/c1ccc2c(c1)O[C@@H](CN(C)Cc1ccccn1)[C@H](C)CN([C@H](C)CO)S2(=O)=O	-16.9	-9.6
C[C@H](CO)N1C[C@H](C)[C@H](CN(C)S(=O)(=O)c2ccccc2F)Oc2ncc(C#Cc3ccccc3F)cc2C1=O	-10.7&-32.9	-4.7&-20.1
O=C(C[C@@H]1C=C[C@H](NC(=O)C2CC2)[C@H](CO)O1)Nc1nccs1	4.7	9.6
CCC(=O)N(C)C[C@H]1Oc2ncc(/C=C/c3ccccc3)cc2C(=O)N([C@H](C)CO)C[C@H]1C	1.4	-1.2
CN(C)CC(=O)N[C@@H]1CC[C@@H](CCn2cc(CN(C)C)nn2)O[C@H]1CO	-7.0	-11.2
CN1C(=O)c2cc(NC(=O)C3CCCC3)ccc2OC[C@H]2O[C@@H](CC(=O)NCCc3ccncc3)CC[C@H]21	15.4	1.4
COc1ccc(S(=O)(=O)Nc2ccc3c(c2)C(=O)N([C@H](C)CO)C[C@@H](C)[C@@H](CN(C)C(=O)NC2CCCCC2)OCCCC[C@H](C)O3)cc1	-17.3	-11.1
C[C@@H]1CCCCO[C@H](CN(C)Cc2ccncc2)[C@H](C)CN([C@H](C)CO)C(=O)c2cc(NC(=O)CCCN(C)C)ccc2O1	-6.1	-4.5
C[C@H]1CN([C@@H](C)CO)C(=O)c2cc(NC(=O)Cc3ccccc3)ccc2O[C@H]1CN(C)Cc1ccc2c(c1)OCO2	1.6	-3.7
COc1ccc(C#Cc2cnc3c(c2)C(=O)N([C@H](C)CO)C[C@@H](C)[C@H](CN(C)CC2CCOCC2)O3)cc1	-18.3	-1.1
O=C(Nc1ccc(F)cc1)N1C[C@H]2[C@@H](c3ccccc31)[C@@H](CO)N2C(=O)c1ccccc1F	7.0	12.8
Cn1cnc(S(=O)(=O)N[C@H]2CC[C@H](CC(=O)Nc3ccccc3)O[C@@H]2CO)c1	5.7	-0.3
CC(C)NC(=O)NC[C@@H]1[C@H](c2ccccc2)[C@H](CO)N1C(=O)c1ccccc1	8.1	11.2
COc1ccc(NC(=O)N2CCC3(CC2)CN(C(=O)C2CCC2)[C@H](CO)c2c3c3ccc(OC)cc3n2C)cc1	-15.8	-16.1
C[C@@H]1CCCCO[C@H](CN(C)C(=O)c2ccccc2)[C@@H](C)CN([C@H](C)CO)C(=O)c2cc(NS(=O)(=O)c3cn(C)cn3)ccc2O1	36.8	13.1
CC(C)c1cn(CC[C@H]2CC[C@H](NC(=O)c3cccc(F)c3)[C@H](CO)O2)nn1	-7.8	2.8
COc1ccccc1NC(=O)N1C[C@H](O)COC[C@H]2O[C@H](CC(=O)NCCc3ccncc3)CC[C@@H]21	-1.6	3.0
CO[C@H]1CN(C)C(=O)c2ccc(NS(=O)(=O)c3ccc(Cl)cc3)cc2OC[C@H](C)NC[C@@H]1C	5.4	0.6
CCCC(=O)Nc1ccc2c(c1)C(=O)N(C)C[C@@H](OC)[C@H](C)CN(C(=O)CC1CC1)[C@H](C)CO2	6.5	5.4
CO[C@@H]1CN(C)C(=O)c2ccc(NC(=O)Cc3ccccc3)cc2OC[C@H](C)N(CC2CC2)C[C@H]1C	5.7	4.6
O=C(C[C@@H]1C=C[C@@H](NC(=O)c2cccc(F)c2)[C@H](CO)O1)NCCN1CCCC1	9.9	11.9
CCCNC(=O)Nc1ccc2c(c1)OC[C@@H](C)N(Cc1ccccc1)C[C@@H](C)[C@@H](OC)CN(C)C2=O	5.9	-4.1
CN(C)C(=O)C[C@H]1C[C@@H]2c3cc(NC(=O)c4ccc5c(c4)OCO5)ccc3O[C@@H]2[C@@H](CO)O1	18.8	19.1
C[C@H](CO)N1C[C@H](C)[C@H](CN(C)Cc2ccc(F)cc2)Oc2ncc(Br)cc2C1=O	5.6	0.1
O=S(=O)(c1ccccc1)N1C[C@H]2[C@@H](c3ccccc31)[C@H](CO)N2Cc1ccccc1	-22.0	-12.5
C[C@@H]1CCCCO[C@@H](CN(C)Cc2ccc(Cl)c(Cl)c2)[C@@H](C)CN([C@H](C)CO)C(=O)c2cc(NC(=O)Nc3ccc(F)cc3)ccc2O1	-3.8	1.0
C[C@@H]1CN([C@H](C)CO)C(=O)c2cc(C3=CCCCC3)cnc2O[C@@H]1CN(C)C(=O)c1ccc(F)cc1	-10.0	-1.7
O=C(N[C@@H]1CC[C@@H](CCNC(=O)C2CCC2)O[C@@H]1CO)c1ccccn1	6.5	5.3
COc1ccc(CN(C)C[C@@H]2Oc3ccc(NS(=O)(=O)c4cn(C)cn4)cc3CC(=O)N([C@H](C)CO)C[C@@H]2C)cc1	25.3	18.2
COc1cccc(-c2cnc3c(c2)C(=O)N([C@H](C)CO)C[C@H](C)[C@H](CN(C)S(=O)(=O)c2cn(C)cn2)O3)c1	5.4	3.5
COCC(=O)Nc1ccc2c(c1)C(=O)N(C)[C@H]1CC[C@H](CC(=O)NCCCN(C)C)O[C@H]1CO2	-9.9	0.0
Cc1noc(C)c1NC(=O)N(C)C[C@H]1OCCCC[C@H](C)Oc2ccc(NC(=O)NC3CCCCC3)cc2C(=O)N([C@@H](C)CO)C[C@@H]1C	22.6	7.5
COc1ccc(C(=O)Nc2ccc3c(c2)OC[C@H](C)N(C(C)=O)C[C@@H](C)[C@@H](OC)CN(C)C3=O)cc1	6.3	12.8
COc1ccc(-c2cnc3c(c2)C(=O)N([C@H](C)CO)C[C@@H](C)[C@@H](CN(C)C(=O)Cc2ccncc2)O3)cc1	1.7	1.0
C[C@H](CO)N1C[C@H](C)[C@H](CN(C)S(=O)(=O)c2ccc(Cl)cc2)Oc2ccc(NS(=O)(=O)c3ccc(Cl)cc3)cc2C1=O	?	nt
C[C@@H]1CN([C@@H](C)CO)C(=O)c2cc(NC(=O)Cc3ccccc3)ccc2O[C@@H](C)CCCCO[C@H]1CN(C)C	1.6	-1.2
COc1cccc(S(=O)(=O)N2C[C@H](O)COC[C@@H]3O[C@@H](CC(=O)N4CCN(c5ccccc5)CC4)CC[C@H]32)c1	-8.4	2.9
C[C@@H]1CN([C@@H](C)CO)C(=O)Cc2cc(NS(=O)(=O)c3ccc(F)cc3)ccc2O[C@H]1CN(C)Cc1ccncc1	-1.1	-0.5
C[C@H]1CN([C@@H](C)CO)C(=O)c2cc(C#CCN(C)C)cnc2O[C@H]1CN(C)C(=O)NC1CCCCC1	13.1	-0.6
O=C(N[C@H]1C=C[C@@H](CC(=O)N2CCOCC2)O[C@@H]1CO)c1ccccn1	-7.5	-2.0
C[C@@H]1CN([C@@H](C)CO)C(=O)c2cccc(NC(=O)Nc3ccc(F)cc3)c2O[C@H]1CN(C)C(=O)Nc1cccc2ccccc12	-15.0	-7.7
CO[C@@H]1CN(C)C(=O)c2ccc(NC(=O)C3CCC3)cc2OC[C@H](C)N(Cc2ccc(F)cc2)C[C@@H]1C	-19.1	-13.8
C[C@H]1CCCCO[C@H](CN(C)CC2CCCCC2)[C@@H](C)CN([C@@H](C)CO)C(=O)c2cc(NC(=O)c3ccncc3)ccc2O1	-10.0	-13.3
CO[C@@H]1CN(C)C(=O)c2ccc(NC(=O)NC(C)C)cc2OC[C@@H](C)N(C(=O)NC(C)C)C[C@H]1C	15.4	8.5

The final three entries of the section above come first, to join the parts.
SMILES	Vaccinia stage	Vaccinia stage Venus
CO[C@@H]1CN(C)C(=O)c2ccc(NC(=O)C3CCC3)cc2OC[C@H](C)N(Cc2ccc(F)cc2)C[C@@H]1C	-19.1	-13.8
C[C@H]1CCCCO[C@H](CN(C)CC2CCCCC2)[C@@H](C)CN([C@@H](C)CO)C(=O)c2cc(NC(=O)c3ccncc3)ccc2O1	-10.0	-13.3
CO[C@@H]1CN(C)C(=O)c2ccc(NC(=O)NC(C)C)cc2OC[C@@H](C)N(C(=O)NC(C)C)C[C@H]1C	15.4	8.5
COc1ccc([Si](C)(C)[C@H]2[C@H](CCn3cc([C@H](O)c4ccccc4)nn3)O[C@@]3(C(=O)N(Cc4cccc(N5CCOC5=O)c4)c4ccccc43)[C@@H]2C)cc1	-9.5	-4.4
O=C(C[C@H]1C[C@@H]2c3cc(NS(=O)(=O)c4ccc(F)cc4)ccc3O[C@@H]2[C@H](CO)O1)NCc1ccccc1F	4.6	1.8
CN1C(=O)c2cc(NC(=O)c3cccs3)ccc2OC[C@H]2O[C@H](CC(=O)NCC(F)(F)F)CC[C@@H]21	5.0	3.3
COC(=O)c1ccc(CN2CC(=O)N3[C@H](CO)[C@H](c4ccc(-c5cccnc5)cc4)[C@@H]3C2)cc1	2.2	2.0
C[C@H](CO)N1C[C@H](C)[C@H](CN(C)C(=O)c2ccncc2)Oc2ncc(C3=CCCCC3)cc2C1=O	8.3	4.6
O=C(C[C@@H]1C=C[C@H](NS(=O)(=O)c2ccc(F)cc2)[C@H](CO)O1)NC1CCC1	8.1	9.0
CN(C)CC#Cc1ccc([C@H]2[C@@H](CO)N3CCCCN(CC4CC4)C[C@H]23)cc1	9.3	-2.7
CC(C)NC(=O)Nc1ccc2c(c1)C(=O)N([C@@H](C)CO)C[C@H](C)[C@@H](CN(C)Cc1ccccc1)O2	5.1	2.1
CCC(=O)N1CC2(CN(Cc3ccc(Cl)cc3)C2)c2c(n(C)c3cc(OC)ccc23)[C@H]1CO	?	nt
CNC[C@@H]1Oc2c(N)cccc2C(=O)N([C@H](C)CO)C[C@H]1C	13.0	3.5
O=C(N[C@H]1C=C[C@H](CC(=O)N2CCc3ccccc3C2)O[C@H]1CO)C1CCC1	3.7	-0.5
COc1ccc(CN(C)C[C@@H]2OCCCC[C@@H](C)Oc3ccc(NS(=O)(=O)c4ccc(Cl)cc4)cc3C(=O)N([C@@H](C)CO)C[C@@H]2C)cc1	?	nt
C[C@H]1CN([C@@H](C)CO)C(=O)c2cccc(NC(=O)C3CC3)c2O[C@H]1CN(C)C(=O)Nc1cccc2ccccc12	23.4	17.1
O=C(N[C@H]1CC[C@@H](CCn2cc(-c3ccccc3)nn2)O[C@@H]1CO)c1ccccc1F	-3.1	1.8
COc1ccc(S(=O)(=O)N(C)C[C@H]2OCCCC[C@H](C)Oc3ccc(NC(=O)C4CCCCC4)cc3C(=O)N([C@@H](C)CO)C[C@@H]2C)cc1	?	nt
C[C@@H]1CN([C@H](C)CO)C(=O)c2cc(NC(=O)CCCN(C)C)ccc2O[C@@H](C)CCCCO[C@@H]1CN(C)Cc1ccc(C(F)(F)F)cc1	?	nt
C/C=C/c1ccc([C@@H]2[C@H](CO)N3C(=O)CN(Cc4ccc(F)cc4)C[C@@H]23)cc1	-5.6	-0.4
C[C@H](CO)N1C[C@H](C)[C@H](CN(C)Cc2ccc(F)cc2)Oc2ncc(-c3cccc(F)c3)cc2C1=O	-16.2	0.7
CO[C@@H]1CN(C)C(=O)c2cc(NS(=O)(=O)c3ccc(C)cc3)ccc2OC[C@H](C)N(Cc2nccs2)C[C@@H]1C	-20.3	-10.7
CC(=O)n1cc([C@H]2C=C(C(=O)N3CCN(Cc4ccccc4)CC3)O[C@@H](OCc3ccc(CO)cc3)C2)c2ccccc21	7.6	17.2
CCC(=O)N1CC2(C1)[C@H](c1ccc(-c3ccc(C#N)cc3)cc1)[C@@H](CO)N2C(C)=O	-10.6	4.5
O=C(Nc1cc(F)ccc1F)N1CC(=O)N2[C@H](CO)[C@@H](c3ccc(C#CC4CCCCC4)cc3)[C@@H]2C1	?	nt
CC(C)NC(=O)Nc1ccc2c(c1)C(=O)N([C@@H](C)CO)C[C@H](C)[C@H](CN(C)Cc1ccc3c(c1)OCO3)O2	23.1	14.9
C[C@@H]1CN([C@H](C)CO)C(=O)c2cc(NC(=O)Nc3ccc4c(c3)OCO4)ccc2O[C@H]1CN(C)Cc1ccncc1	0.2	8.4
O=C(C[C@@H]1C[C@@H]2c3cc(NC(=O)C4CCOCC4)ccc3O[C@@H]2[C@@H](CO)O1)NCc1cc(F)ccc1F	-0.4	-1.6
CN(C)CC#Cc1ccc([C@H]2[C@H](CO)N3C(=O)CN(C(=O)c4ccccc4)C[C@@H]23)cc1	0.5	-8.5

A second format for 4 compounds above.
Under each structure – Vaccinia stage | Vaccinia stage Venus
O=C(Nc1ccc(F)cc1)N1C[C@H]2[C@@H](c3ccccc31)[C@@H](CO)N2C(=O)c1ccccc1F
→ 7.0 | 12.8
Cn1cnc(S(=O)(=O)N[C@H]2CC[C@H](CC(=O)Nc3ccccc3)O[C@@H]2CO)c1
→ 5.7 | -0.3
CC(C)NC(=O)NC[C@@H]1[C@H](c2ccccc2)[C@H](CO)N1C(=O)c1ccccc1
→ 8.1 | 11.2
COc1ccc(NC(=O)N2CCC3(CC2)CN(C(=O)C2CCC2)[C@H](CO)c2c3c3ccc(OC)cc3n2C)cc1
→ -15.8 | -16.1

From PubChem
